Screens deposited in PubChem BioAssay by National Center for Advancing Translational Sciences (NCATS).
ClpP mod = qHTS Assay for Activators of ClpP | ATP-dependent Clp protease proteolytic subunit (Bacillus subtilis (strain 168)), P80244 | purified B. subtilis ClpP, FRET peptide cleavage, 20 min | Potency, µM (highest dose often 57.5 µM), for the others: top-dose activity change, negative = active | 1.9% of 340,000 active; active = well fitted falling curve with a large enough effect; inconclusive = small, poorly fitted or top-dose-only effect; inactive = no such curve, though single readings can be large or run the other way; further: potency means the concentration at half of the fitted maximal effect; the source files actives as falling curves though it sought activators and does not explain the sign; nearly all actives have a fitted effect of over 65% in size; many hits overshoot -100%
Target sequence (P80244 whole entry, looked up): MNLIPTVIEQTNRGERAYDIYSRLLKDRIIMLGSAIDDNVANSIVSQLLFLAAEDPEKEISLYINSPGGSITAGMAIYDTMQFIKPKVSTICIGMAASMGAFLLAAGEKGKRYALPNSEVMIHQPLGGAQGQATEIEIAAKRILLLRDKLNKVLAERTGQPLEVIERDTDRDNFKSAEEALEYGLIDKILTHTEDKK
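Buffer: 100 mM Tris/HCl pH8, 100 mM KCl, 0.05% low protease BSA, 2.5% glycerol, 0.01% Tween-20. ClpP 10 microg/mL final; 20 min RT; delta FRET normalized to ADEP and DMSO controls.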
gsp antagonist = gsp mutant antagonism. gsp-mutant cells, cAMP HTRF, 30 min; control for the full effect not named in the record. Potency, µM (doses to about 76.9 µM), for inactives: at the top dose activity change, negative = inhibition, usual class: inhibitors. 0.4% of 340,000 active. AID 624288; active = falling curve of any shape with a large fitted effect; inconclusive = falling curve, mostly with a smaller effect; inactive = flat or rising curve; cell line not stated here;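 further: intracellular cAMP measured with PDE inhibitor Ro 20-1724 present during compound exposure; potency means the concentration at half of the fitted maximal effect; on the % scale 0 is the no-effect control and ±100 the full control effect; nearly all actives have a fitted effect of over 65% in size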
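Cells in G418 medium, seeded 16-24 h, 37C; buffer exchange to DPBS + 1 mM CaCl2, 0.5 mM MgCl2, 0.05% BSA; cpds in DMSO + […] (300 uM stock), 30 min 37C; HTRF cAMP detection.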
TRPV1 PAM = human TRPV1 potentiation | TRPV1-expressing cells, Fluo-8 calcium influx, capsaicin EC20 potentiation; host cell line not named in the record; control for the full effect not named in the record | Q8NER1 | 0.02% of 320,000 active | AID 540277 | potentiation, % at 8.33 µM; active means potentiation above 80%; inconclusive means 30% to 80%; inactive means below 30%; further: 0% is about no effect
Target sequence (Q8NER1 whole entry, looked up): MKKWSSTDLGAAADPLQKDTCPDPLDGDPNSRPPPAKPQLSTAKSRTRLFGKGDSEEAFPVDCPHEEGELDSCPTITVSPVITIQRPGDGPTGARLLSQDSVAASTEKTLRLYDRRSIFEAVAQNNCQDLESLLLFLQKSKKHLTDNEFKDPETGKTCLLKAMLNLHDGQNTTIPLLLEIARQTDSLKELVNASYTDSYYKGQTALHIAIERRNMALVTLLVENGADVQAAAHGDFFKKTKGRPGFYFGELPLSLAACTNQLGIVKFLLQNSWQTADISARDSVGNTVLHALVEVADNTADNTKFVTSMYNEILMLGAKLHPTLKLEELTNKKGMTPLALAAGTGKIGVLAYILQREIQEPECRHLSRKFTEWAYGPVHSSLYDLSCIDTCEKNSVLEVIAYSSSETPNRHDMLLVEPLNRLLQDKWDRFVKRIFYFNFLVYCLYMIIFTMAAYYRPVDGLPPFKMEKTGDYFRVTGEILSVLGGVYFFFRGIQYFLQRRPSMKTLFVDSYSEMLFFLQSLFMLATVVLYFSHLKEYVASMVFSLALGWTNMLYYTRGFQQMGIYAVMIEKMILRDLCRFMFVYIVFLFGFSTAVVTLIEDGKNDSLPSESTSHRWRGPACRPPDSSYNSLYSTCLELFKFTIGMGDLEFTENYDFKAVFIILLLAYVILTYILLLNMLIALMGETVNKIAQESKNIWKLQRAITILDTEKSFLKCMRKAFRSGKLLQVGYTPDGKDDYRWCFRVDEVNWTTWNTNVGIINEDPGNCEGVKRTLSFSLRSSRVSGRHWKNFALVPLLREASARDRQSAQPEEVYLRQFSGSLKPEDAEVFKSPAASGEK
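Fluo-8 calcium influx in TRPV1-expressing cells, kinetic read (ex 480/em 520 nm). Compound added and read 3 min for agonist activity, followed by capsaicin at EC20 final and 2 min further read for enhancement.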
CtBP-E1A inh = inhibitors of CtBP/E1A interaction | AlphaScreen GST-E1A/His-CtBP binding, 1536-well; stronger effect = lower value; control for the full effect not named in the record | activity change, % (concentration not given with the values) | 0.49% of 340,000 active | AID 651724; in the data active means activity change below about -65%; inconclusive means about -30% to -65%; inactive means above about -30%; further: on the % scale 0 is the no-effect control and ±100 the full control effect
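Steps: dispense buffer (Tris pH 8.0, NaCl 300 mM, TCEP 1 mM, BSA, Tween 20); add 5X protein mix (GST-E1A, His-CtBP, 125 nM each); pin 23 nL compound; 2 h at 37 °C, dark; add 5X beads (50 ug/mL); 1 h; read.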
gsp agonist = gsp mutant agonism. gsp mutant cells, cAMP HTRF, 30 min; control for the full effect not named in the record. Potency, µM (highest dose often 76.9 µM), inactives show at the highest dose activation (cAMP increase), actives largely listed as activators. 0.13% of 340,000 active; active = well fitted activation curve with a large enough effect; inconclusive = small, poorly fitted or top-dose-only effect, or another doubt; inactive = no such curve, though single readings can be large or run the other way; cell line not stated here;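 further: phosphodiesterase inhibitor Ro 20-1724 added with compounds to block cAMP breakdown; potency means the concentration at half of the fitted maximal effect; nearly all actives have a fitted effect of over 60% in size; about a fifth of the inactives were tested at one dose only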
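Cells stably selected in G418 were plated at 2000/well, grown 16-24 hr, then given compounds in DMSO with the PDE inhibitor […] (300 uM solution added) for 30 min at 37C; cAMP was read by HTRF.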
Menin-MLL FL inh = displaces fluorescein MLL peptide from human menin; Fluorescence polarization, fluorescein-MLL peptide displacement from menin; FP activity change, % at 61.4 µM; 290,000 tested, under 10 active; AID 1766; inconclusive = falling polarisation curve, or a change in total fluorescence; inactive = total fluorescence flat and polarisation flat or rising; no compound was filed as active; the % refers to the polarisation; negative = inhibition;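 further: % of control where 0% means no effect; inhibitors lower the polarisation; unlabelled MLL peptide was the positive control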
Sfp PPTase inh = inhibitors of Bacillus subtilis Sfp phosphopantetheinyl transferase. Q9F4F7. Biochemical Sfp PPTase activity, qHTS. Potency, µM, without a hit: max response, negative = inhibition, most hits filed as inhibitors. 3.5% of 310,000 active. AID 1490; active means well fitted inhibition curve with a large enough effect; inconclusive means small, poorly fitted or top-dose-only effect, or another doubt; inactive means no such curve, though single readings can be large or run the other way;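 further: the enzyme is Sfp with the accession as filed and its product quenches rhodamine fluorescence; potency means the concentration at half of the fitted maximal effect; 0% = enzyme reaction without inhibitor and -100% = no enzyme wells; top concentration of the series not given in the record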
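Reaction rates are the 30-min fluorescence difference (ex 525, em 598 nm) in wells containing 15 nM Sfp, 5 uM rhodamine-CoA and 12.5 uM BHQ-2-YbbR at pH 7.6 with 10 mM MgCl2.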
* = called active by the depositor; ? = inconclusive; . = no result given; [ ] = remark or other dose.

SMILES	ClpP mod	gsp antagonist	TRPV1 PAM	CtBP-E1A inh	gsp agonist	Menin-MLL FL inh	Sfp PPTase inh
CCOC(=O)N1CCN(c2nc(-c3ccccc3)c3ccccc3n2)CC1	.	-13%	6	9	?	-6.7	-18%
C#Cc1ccc([C@H]2C=C(C(=O)N3CCN(Cc4ccccc4)CC3)O[C@@H](OCC)[C@@H]2CCCO)cc1	-2.3%	-17%	13	.	-51%[inhibitor]	3.3	-1%
CC(=O)N1CCN(c2ccc(NC(=O)c3ccco3)cc2Cl)CC1	-2.0%	-5%	11	-3	-36%[inhibitor]	.	25%
Cc1cccc(NC(=O)C2COc3ccccc3O2)c1 (centres undefined)	-0.3%	4%	-30	8	?	0.2	-2%
COc1ccc(CNS(=O)(=O)c2cc(-c3cc(C)no3)ccc2OC)cc1OC	-1.7%	-2%	4	2	-2%	0.7	8%
O=C(CN1N=C(c2ccccc2)CCC1=O)NCCCN1CCc2ccccc2C1	1.2%	12%	-6	-2	10%	1.7	2%
Cc1cccc(NS(=O)(=O)Cc2ccccc2)n1	?	12%	4	3	-24%	2.2	13%
CCN1CCN(CCn2c(=S)[nH]c3ccccc3c2=O)CC1	-2.9%	6%	-3	3	-2%	-0.2	1%
Cc1ccc(S(=O)(=O)Nc2nc3ccccc3nc2NCC2CCCO2)c(C)c1 (centres undefined)	.	-14%	11	-14	-5%[15.4 µM]	9.2	21%
CCCSc1nc2c(cnn2-c2ccc(C)cc2)c(=O)[nH]1	-1.0%	9%	-3	0	-26%	-0.3	-13%
COc1ccccc1CC1CC(=O)N(c2cccc(Cl)c2C)C1=O (centres undefined)	0.1%	-14%	5	-9	-1%	1.4	14%
COc1ccc(CC(=O)OCC(=O)Nc2ccc(C(=O)Nc3ccc(OC)cc3)cc2)cc1	-2.0%	5%	-3	.	?	7.6	0%

SMILES	ClpP mod	gsp antagonist	TRPV1 PAM	CtBP-E1A inh	gsp agonist	Menin-MLL FL inh	Sfp PPTase inh
O=C(CC1SC2=NCCN2C1=O)Nc1ccc(Cl)cc1 (centres undefined)	-0.6%	-1%	-11	-11	-1%	-1.7	15%
CCN(C(=O)c1ccc2c(Cl)c3c(nc2c1)CCC3)c1ccc(C)c(C)c1	1.0%	?	0	-11	4%	5.5	-19%
COc1cc2cc(C)c3nnc(SCC(N)=O)n3c2cc1OC	.	.	0	.	.	2.8	23%
Cc1cccc(NC(=O)CSCC(=O)N2CCN(c3cccc(C(F)(F)F)c3)CC2)c1	1.4%	-16%	-7	.	8%	.	.
CCOC(=O)c1[nH]c2cc3c(cc2c1CCCN1C(=O)c2ccccc2C1=O)OCCO3	-9.6%	-6%	-1	8	1%	-1.8	-6%
CCc1ccccc1NC(=O)CN(C)C(=O)CSc1nnc(Nc2cccc(C)c2C)s1	-1.9%	-12%	4	26	-2%	3.6	-9%
COc1cc(C(=O)OCC(=O)NC2CCCC2)cc(NC(=O)c2ccco2)c1OC	-2.1%	11%	1	0	-1%	0.4	11%
CCOC(=O)C1(C(F)(F)F)N=C(N(C)C)OC(N(C)C)=N1	16µM*	-5%	-2	-11	-1%	5.0	15%
Cc1noc(C)c1NC(=O)NC(c1ccccc1)c1ccccc1	.	9%	-9	-1	-5%[15.4 µM]	3.2	13%
C=CCNC(=S)NCc1ccccc1	0.0%	8%	-32	4	6%	2.9	?
CC#CCOCC1CN(C)C(=O)O1 (centres undefined)	0.1%	.	.	2	7%	.	.
Cc1cnc(NC(=O)CSc2nnc(Cc3ccccc3)n2C)s1	1.4%	6%	-2	3	-4%	3.5	-7%

SMILES	ClpP mod	gsp antagonist	TRPV1 PAM	CtBP-E1A inh	gsp agonist	Menin-MLL FL inh	Sfp PPTase inh
Cc1ccc(-c2noc(-c3cccs3)n2)cc1	-3.4%	-2%	5	4	-58%[inhibitor]	4.1	-6%
CCOc1cc(NC(=S)NCC2CCCO2)c(OCC)cc1NC(=O)c1ccccc1F (centres undefined)	.	-59%	-14	14	15%[15.4 µM]	-0.3	-5%
COc1ccc(Cc2nnc(CCc3ccccc3)s2)cc1	1.1%	3%	-13	.	-14%	-2.6	9%
COC(=O)C1CCN(Cc2cc(=O)oc3cc(OC)ccc23)CC1	?	-4%	2	-1	-37%[inhibitor]	0.7	13%
O=C(Nc1ccc(N2CCOCC2)c(Cl)c1)c1cccc(F)c1	-7.5%	-8%	-3	-1	17%	-0.4	-10%
Cc1cc2ncn(C3CC(=O)N(Cc4ccccc4)C3=O)c2cc1C (centres undefined)	4.4%	?	-5	8	5%	4.8	7%
O=c1ccnc(Nc2ccc3c(c2)OCCO3)[nH]1	.	-5%	4	-14	-23%	-0.5	-3%
CC(=O)c1sc(NC(=O)CCOc2ccccc2)nc1C	-1.5%	3%	13	1	?	0.6	6%
COc1ccc2[nH]c3c(c2c1)CCN1C(=O)N([C@@H](C)C(=O)NCc2ccc(C)cc2)C(=O)[C@]31C	-1.5%	-3%	11	2	.	0.6	18%
COc1ccc(Nc2ncnc3c2cnn3-c2ccccc2)cc1OC	-4.3%	-3%	-4	0	-53%[inhibitor]	0.2	4%
COc1ccc(CNS(=O)(=O)c2ccc3c(c2)NC(=O)CS3)cc1	-0.7%	6%	2	2	0%	-2.4	0%
O=C(CSc1ccccc1)N/N=C/c1ccccc1O	.	9%	-3	?	-7%	3.7	-1%

SMILES	ClpP mod	gsp antagonist	TRPV1 PAM	CtBP-E1A inh	gsp agonist	Menin-MLL FL inh	Sfp PPTase inh
CCCCCCSc1ccc([C@@H]2[C@H]3C(=O)N(C)C(=O)[C@H]3[C@]3(C(=O)OC)CCCCN23)cc1OC	-12%	-7%	18	4	.	.	.
CCN1CCN(Cc2c(O)c(Cl)cc3c(C)cc(=O)oc23)CC1	-32%	-5%	-3	7	21%	-6.4	7%
CN1CCN(c2ccccc2NC(=O)COc2ccc(Cl)cc2)CC1	1.4%	18%	-7	-4	-10%[15.4 µM]	.	26%
Cc1ccccc1C(=O)NC1CC2CCCC(C1)N2CC(C)C (centres undefined)	0.9%	.	.	5	-17%	.	.
CC(=O)Nc1cccc(NC(=O)Cc2nc(-c3ccccc3)sc2-c2ccc(C)cc2)c1	.	-31%	12	-2	20%[15.4 µM]	2.8	-5%
Cc1c(NC(=O)CSc2nc3ccccc3n2C)c(=O)n(-c2ccccc2)n1C	-1.0%	-3%	-1	0	-2%	-0.3	20%
C/C(=N\NC(=O)c1ccncc1)C12CC3CC(CC(C3)C1)C2	-1.3%	12%	-26	2	-16%	.	-16%
CC1=CC(C)(C)N2C(=O)C3(C(C#N)=C(N)OC4=C3C(=O)CC(C)(C)C4)c3c(C)c(C)cc1c32 (centres undefined)	1.2%	-6%	5	11	2%	4.8	18%
O=C(c1cc(Br)c(Br)s1)N1CCc2ccccc2C1	-2.3%	-8%	.	.	-18%	.	.
CCn1nc(C(=O)NNC(=O)c2ccccc2)c2ccccc2c1=O	-7.6%	10%	2	1	14%	.	.
Cc1cc(C)c(NC(=O)CNC(=O)c2cc([N+](=O)[O-])ccc2N2CCOCC2)c(C)c1	.	11%	23	4	-8%[15.4 µM]	.	.
Clc1ccc(CCNc2ncnc3nc[nH]c23)cc1	1.1%	-15%	-11	3	-13%	1.5	-18%

SMILES	ClpP mod	gsp antagonist	TRPV1 PAM	CtBP-E1A inh	gsp agonist	Menin-MLL FL inh	Sfp PPTase inh
N#CCCN(C(=O)COc1ccc(Cl)cc1Cl)c1ccccc1	2.0%	-14%	-1	-6	-6%	6.7	0%
O=C1N=C(N2CCc3ccccc3C2)S/C1=C\c1ccc(O)cc1	.	-12%	-3	-1	?	?	-11%
Nc1sc(-c2ccccc2)c(Cc2ccccc2)c1C(=O)O	-3.1%	-4%	-16	3	?	2.9	-8%
O=[N+]([O-])c1ccc(N=Cc2c(O)ccc3ccccc23)cc1	-1.9%	8%	22	3	9%	2.2	-6%
COc1ccc2c(ccn2S(=O)(=O)c2ccccc2)c1	-0.3%	1%	-4	.	27%	4.3	3%
CC1CC2(NC(=O)NC2=O)C(C)CN1C (centres undefined)	25µM*	10%	-2	9	-23%	1.8	25%
CCc1ccc([C@@H]2C[C@H]3[C@@H](CN2S(=O)(=O)c2ccc(C)cc2)C(=O)C[C@@H](c2ccc(Cl)cc2)N3S(=O)(=O)c2ccccc2C)cc1	-0.4%	.	.	1	-1%	.	.
CC(c1ccon1)N(C)C(=O)c1cccc(OC2CCN(S(C)(=O)=O)CC2)c1 (centres undefined)	-1.1%	.	.	2	-27%	.	.
CC(C)OC(=O)c1ccc(N2C(=O)C3CC=CCC3C2=O)cc1 (centres undefined)	-7.4%	15%	-18	2	-1%	0.9	8%
CCOc1ccc(NC(=O)CCNC(=O)Cn2cnc3ccccc3c2=O)cc1	.	-4%	-15	0	6%	-6.2	8%
CC(C)[C@@H](C(=O)NC1CCN(Cc2ccccc2)CC1)N1C(=O)N2CCc3c([nH]c4ccccc34)[C@@]2(C)C1=O	-5.3%	2%	-5	?	.	-1.6	3%
CCOC(=O)c1ccc(NC(=O)c2ccc(NC(=O)C3CCCO3)cc2)cc1 (centres undefined)	.	-31%	-3	-18	10%	-4.5	-4%

SMILES	ClpP mod	gsp antagonist	TRPV1 PAM	CtBP-E1A inh	gsp agonist	Menin-MLL FL inh	Sfp PPTase inh
O=C(N/N=C/c1cc(Br)c(O)c(Br)c1O)c1cccnc1	-0.8%	-10%	2	.	?	?	-16%
COc1ccc(OC)c2c1cc(C(=O)N[C@@H](Cc1ccccc1)C(=O)O)n2C	.	1%	-4	-10	20%	3.2	-1%
CCc1cccc(NC(=O)CN(c2ccc(OC)cc2)S(=O)(=O)c2c(C)n[nH]c2C)c1	0.5%	?	-3	-6	20%	3.7	5%
COc1cccc(N2CCN(CC(=O)Nc3nc(C)c(C(=O)N(C)C)s3)CC2)c1	.	5%	-5	1	-8%	-2.6	12%
O=C(CCC(=O)Nc1cccnc1)Nc1cccnc1	-1.5%	-3%	.	.	6%	.	.
CCC(C)NS(=O)(=O)c1ccc(OCC(=O)NCc2ccc(OC)cc2)cc1 (centres undefined)	0.5%	3%	2	6	2%	-7.0	24%
CCOC(=O)C1=C(C)Nc2nc(=S)[nH]n2C1c1ccc(Cl)cc1 (centres undefined)	1.1%	-7%	17	.	-30%[inhibitor]	3.7	7.9µM*
COc1cc(/C=N/NC(=O)c2ccoc2C)cc(OC)c1OC	-18%	2%	.	-2	22%	.	.
